Screening data from PubChem BioAssay.
Tgondii IFNg = inhibitors of Toxoplasma gondii growth with IFN-gamma. activity change, negative = inhibition, %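 (about 20 µM by stock and volumes)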. Toxoplasma gondii growth in IFN-gamma-treated host cells; stronger effect = lower value; reference of the scale not given here. actives 3.8% (n = 69,000);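 active means below -70%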;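 further: host cells are HeLa cells infected with Toxoplasma gondii; parasite growth read as luciferase light; one replicate is shown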
The depositor's hits bear a star; i = inactive; & = joins results of further samples; ! = not active in a repeat.

no.	canonical_smiles	Tgondii IFNg
1	Cc1nc(C)c(CC(=O)Nc2ncc(Cc3ccc(F)cc3)s2)s1	-80*
2	CO[C@@H](CN(C)S(=O)(=O)c1ccc(C)cc1)[C@@H](C)CN([C@@H](C)CO)S(=O)(=O)c1cccc(Cl)c1	-45
3	CN(C)CC/C=C1\c2ccccc2Sc2ccc(Cl)cc21	-77*!
4	Oc1cc2c(cc1O)CN(C(=S)NCCc1ccc(Cl)cc1)CCC2	11
5	Cc1c(C(=O)OCCOc2ccccc2)sc(=S)n1C	64
6	Cc1nc(SCC(=O)OCN2C(=O)c3ccccc3C2=O)n[nH]1	8
7	c1ccc(-c2cc3ncnc(NCc4ccc5c(c4)OCO5)c3s2)cc1	-105*
8	CCn1c(CC2CCN(C(=O)c3onc4ccccc34)CC2)nn(C)c1=O	-6
9	Cc1cnc(-c2cc(NCc3ccccn3)nc3[nH]ccc23)nc1N(C)C	17
10	c1cncc(OC2CCN(Cc3cc4n(n3)CCCNC4)CC2)c1	4
11	Cc1cc(C)cc(C(=O)N2CCCn3nnc(CN4CCOCC4)c3C2)c1	5
12	O=C(O)CSc1nnc(Br)n1-c1ccc(C2CC2)c2ccccc12	14
13	N#C[C@@H]1[C@@H](c2ccccc2-c2ccccc2F)[C@H](CO)N1C(=O)Cc1ccccc1	-41
14	O=C(c1ccncc1)N1CCCn2cnc(COCCO)c2C1	-2
15	Cc1ccc2c(n1)N(CCn1cccn1)CCN(CCN(C)C)C2	14
16	O=C(Oc1cccc2cccnc12)c1cc2ccccc2o1	47
17	COc1ccccc1S(=O)(=O)N(C)C[C@@H]1OCc2ccccc2-c2ccccc2C(=O)N([C@H](C)CO)C[C@@H]1C	-38
18	CS(=O)(=O)N1CC(=O)N2[C@H](CO)[C@H](c3ccc(C#Cc4ccc(F)cc4)cc3)[C@@H]2C1	-2
19	COc1cc(OC)c(NC(=O)Nc2ccc(-c3nc(-c4ccc(C)cc4)co3)cc2)cc1Cl	-77*
20	COCC1CN(C(=O)c2cccn2C)Cc2c1cnn2CC1CC1 (stereo not given)	22

3 entries from above, field by field:
6	Cc1nc(SCC(=O)OCN2C(=O)c3ccccc3C2=O)n[nH]1
  Tgondii IFNg: 8
7	c1ccc(-c2cc3ncnc(NCc4ccc5c(c4)OCO5)c3s2)cc1
  Tgondii IFNg: -105*
8	CCn1c(CC2CCN(C(=O)c3onc4ccccc34)CC2)nn(C)c1=O
  Tgondii IFNg: -6

Next section.
no.	canonical_smiles	Tgondii IFNg
21	Cc1cc(C)n2c(C(=O)N(C)C3Cc4ccccc4C3)nnc2n1	-2
22	Cc1ccc(CS(=O)(=O)N2CCNC(C(=O)O)C2)cc1 (stereo not given)	-4
23	CCn1c(=O)c(C(=O)Nc2cccc(C)c2C)c(O)c2ccccc21	126
24	C[C@H](CO)N1C[C@H](C)[C@@H](CN(C)Cc2ccc(Cl)c(Cl)c2)OCCCC[C@H](C)Oc2ccc(NC(=O)c3ccncc3)cc2C1=O	-61
25	CCCC#Cc1ccc([C@H]2[C@H]3CN(C(=O)Nc4cccc(F)c4)CC(=O)N3[C@H]2CO)cc1	-42
26	Cc1ccc(C(=O)NCc2ccc3c(c2)OCO3)cc1NC(=O)C1CC1	4
27	CCn1c(C2CCCNC2)nn(CCSc2ccccc2)c1=O (stereo not given)	8
28	O=C(O)C1[C@H]2C(=O)N(C3CCCC3)C[C@]23C=C[C@H]1O3 (stereo not given in full)	48
29	C=CCO[C@@H]1C[C@@H]2CN(S(=O)(=O)c3cn(C)cn3)CCN2C1	1
30	COCCn1c2c([n+](Cc3cnccn3)c1C)C(=O)c1ccccc1C2=O	-83*
31	O=C(NC1CCC(n2cnnc2)CC1)c1[nH]cnc1-c1ccccc1 (stereo not given)	113
32	CN(C)CCNC(=O)c1cc2n(n1)CCCN(C(=O)Nc1ccccc1)C2	2
33	Cc1cc(Nc2cc(C)on2)nc(C2CCN(C(=O)CN)C2)n1 (stereo not given)	9
34	C=CCn1c(=O)c(C(=O)NCc2cccnc2)c(O)c2ccccc21	46
35	Cc1ccc2oc(-c3nccn3CCSc3nncn3C)c(C)c2c1	12
36	Cc1nnc(SCCCNC(=O)CC2COCCN2)s1 (stereo not given)	-3
37	C1CCC(N2CCN(C3C4CCCC3CNC4)CC2)CC1 (stereo not given)	-26
38	Cc1cc(COc2ccccc2)oc1C(=O)N1CCOC(C(F)(F)F)C1 (stereo not given)	-5
39	CN(C)[C@@H]1CCN(S(=O)(=O)C2CC2)[C@@H]1Cc1ccccc1	-25
40	Cc1ccn(CC(=O)N2CCN3CCNC(=O)C3C2)n1 (stereo not given)	-3
41	CO[C@H]1CN(C)C(=O)c2cc(NC(=O)C3CCCCC3)ccc2OC[C@@H](C)N(C(=O)c2ccccc2)C[C@@H]1C	28
42	Cc1noc(C)c1C1CCCN1C(=O)c1cc(-c2ccccc2O)n[nH]1 (stereo not given)	3
43	CC1CCN(S(=O)(=O)c2ccc3c(ccc(=O)n3CC(=O)NC3CCCC3)c2)CC1	-54
44	Cc1noc(C)c1NC(=O)N1C[C@@H](O)COC[C@@H]2O[C@H](CC(=O)N3CCc4ccccc4C3)CC[C@H]21	36
45	O=C(OC(Cc1ccccc1)C(F)(F)F)c1ccc(Cl)cc1Cl (stereo not given)	5
46	COc1ccc(S(=O)(=O)CC(=O)O)cc1	1
47	Cc1ccc(S(=O)(=O)N2CCC[C@@H]2C(=O)NCCc2csc(C)n2)cc1	1
48	CN1CCN(CC2CC2)C(=O)C12CCN(C(=O)CC(F)(F)F)CC2	-2
49	CC1CN(C(=O)c2nc3c(s2)CCCN3C(=O)C2CC2)CC(C)O1 (stereo not given)	-45
50	CCn1c(C2CCN(C(=O)Nc3ccc(OC)c(OC)c3)CC2)nn(C)c1=O	-5
51	CN(C)C(=O)COCC1CC2(CCN(Cc3cnn(C)c3)CC2)CO1 (stereo not given)	-32
52	Cc1cc(C(=O)Nc2cccc(C(=O)NC(C)(C)C)c2C)cc(=O)[nH]1	76
53	O=C(NC[C@@H]1[C@@H](c2ccccc2)[C@@H](CO)N1C(=O)Cc1ccncc1)C1CCC1	-19
54	O=C1c2ccccc2S(=O)(=O)N1CCS(=O)(=O)c1ccc(Cl)cc1Cl	-7
55	CCN1CC2(CCC1=O)CCN(C(=O)c1ccncn1)CC2	-25
56	OC1C[C@H]2CC[C@@H](C1)N2c1nc(-c2cccnc2)nc2c1CNC2 (stereo not given in full)	-7
57	CCC(NC(=O)c1[nH]nc(-c2ccccc2)c1C)c1ccc(F)cc1 (stereo not given)	47
58	CCCS(=O)(=O)N1CCC2(CCCN(c3ncccn3)C2)CC1	-2
59	Cc1cc(-c2cnc(NCc3c(C)nn(-c4ccccc4)c3C)nc2-c2ccco2)on1	23
60	Cn1cnc2nc(NCCO)nc(NCc3ccccc3)c21	3
61	FC(F)(F)c1ccnc(-n2ccc(-c3cccs3)n2)n1	415
62	COc1ccc(-n2c(=O)c(C(=O)Nc3ccc(OC)c(F)c3)c(O)c3cccnc32)cc1	188
63	COCC1CN(C(=O)CCc2cccc(OC)c2)Cc2c1cnn2C (stereo not given)	1
64	CCC(C)C1N=C2c3ccccc3N=C(SCc3ccc(F)cc3)N2C1=O (stereo not given)	-9
65	Cc1cccc(C(C(=O)NCc2ccc(CN)cc2)N(C)C)c1 (stereo not given)	-2
66	c1coc(CN2C[C@H](N3CCOCC3)[C@H]3OCCC[C@@H]32)c1	0
67	Cn1ccnc1CN(Cc1ccncc1)C[C@@H]1CCC(=O)N1	1
68	COCC(=O)N1[C@@H](C#N)[C@H](c2ccccc2-c2ccccc2F)[C@@H]1CO	-13
69	Clc1cccc(CN2CC3CCCC(C2)C3N2CCOCC2)c1Cl (stereo not given)	9
70	CCCCN(Cc1cccnc1)C(=O)c1ccccc1C1CCNC1 (stereo not given)	1
71	COc1ccc(-c2ocnc2C(=O)NCc2nn(-c3ccccc3)nc2C)cc1	-44
72	Cc1ccc(C(=O)N(CCCN)[C@@H](c2nc3cc(Cl)ccc3c(=O)n2Cc2ccccc2)C(C)C)cc1	-70
73	CCn1c(C2CCCN(C(=O)CC3=CCNCC3)C2)nn(C)c1=O (stereo not given)	5
74	Cc1nn(-c2cc(N3CCCCC3)ncn2)c(C)c1CCC(=O)NC1CCCC1	-13
75	O=C(Cc1ccc2c(c1)CCCO2)NCc1ccccc1-n1ccnc1	13
76	Cc1cc(C)c(S(=O)(=O)N2CCC3(CC2)NCCN=C3NC2CCCC2)cc1C	10
77	Cc1ccc(NC(=O)CN2C(=O)CCc3cc(S(=O)(=O)N4CCCCC4)ccc32)cc1F	-24
78	COc1ccc2c3c([nH]c2c1)[C@H](CO)N(C(=O)c1cccnc1)CC31CN(Cc2ccccc2)C1	22
79	COc1cc(CN(Cc2ccccc2)CC2CCCO2)cc(OC)c1OC (stereo not given)	1
80	COCCN1C(=O)C2(CCN(C(=O)[C@H]3CCCO3)CC2)c2ccccc21	-3

3 entries picked at random from those above:
no.	canonical_smiles	Tgondii IFNg
63	COCC1CN(C(=O)CCc2cccc(OC)c2)Cc2c1cnn2C (stereo not given)	1
64	CCC(C)C1N=C2c3ccccc3N=C(SCc3ccc(F)cc3)N2C1=O (stereo not given)	-9
71	COc1ccc(-c2ocnc2C(=O)NCc2nn(-c3ccccc3)nc2C)cc1	-44

Exported field by field: entries from further up.
[72] Cc1ccc(C(=O)N(CCCN)[C@@H](c2nc3cc(Cl)ccc3c(=O)n2Cc2ccccc2)C(C)C)cc1
  Tgondii IFNg: -70

[73] CCn1c(C2CCCN(C(=O)CC3=CCNCC3)C2)nn(C)c1=O (stereo not given)
  Tgondii IFNg: 5

[74] Cc1nn(-c2cc(N3CCCCC3)ncn2)c(C)c1CCC(=O)NC1CCCC1
  Tgondii IFNg: -13

[75] O=C(Cc1ccc2c(c1)CCCO2)NCc1ccccc1-n1ccnc1
  Tgondii IFNg: 13

Additional structures.
no.	canonical_smiles	Tgondii IFNg
81	O=S(=O)(NCC1CCN(Cc2ccc3ccccc3n2)C1)C1CC1 (stereo not given)	17
82	COc1ccc(CCC(=O)NCCc2csc(-c3ccc(C(F)(F)F)cc3)n2)cc1	i
83	CCCCS(=O)(=O)N1CCC2(CC1)C(=O)N(C)CCN2Cc1ccccc1	-7
84	CC(C)c1cc(C2CCN(Cc3nccn3C)CC2)[nH]n1	5
85	C[C@@H]1CN([C@H](C)CO)C(=O)c2cc(-c3ccc(F)cc3)cnc2O[C@H]1CN(C)S(C)(=O)=O	84
86	CC(=O)N1[C@H](CN2CCCC2)C[C@H]2CN(C(=O)c3ccco3)CC[C@H]21	-4
87	CN(C)C(=O)c1cccc(-c2ccc3c(c2)[C@H]2[C@H](CCN2Cc2nccs2)[C@@H](CO)N3)c1	-17
88	CC(C)NC(=O)N(C)C[C@@H]1Oc2c(NS(=O)(=O)c3cccs3)cccc2C(=O)N([C@H](C)CO)C[C@H]1C	-43
89	O=C(NC1CCC(n2cnnc2)CC1)c1ccc(Cn2ccnc2)o1 (stereo not given)	1
90	COc1cc2c(cc1-c1nccn1CCc1cccc(F)c1)OCO2	-2
91	O=C1CCOC[C@]2(CN(C(=O)c3cccnc3)C[C@H]2c2ccccc2)N1	32
92	CCn1ccc(C(=O)NC2CCc3ccc(S(=O)(=O)NC4CCCC4)cc32)n1 (stereo not given)	-19
93	Clc1ccc(SC2CN(C(c3ccccc3)c3ccccc3)C2)cc1	-22
94	C=C(C)CN1CCN(Cc2cn[nH]c2C(C)(C)C)CC1	26
95	CCOc1ccc(C(=O)N2CCC3(CC2)Nc2ccccc2-n2cccc23)cc1	6
96	Cc1cc(C(F)(F)F)nc(CCNS(=O)(=O)NCc2ccccc2)n1	-55
97	CNC(=O)CN1CCC2(CCCN(c3cnccn3)C2)CC1	55
98	CCC(CC)N(CC)C(=O)c1ccc(=O)[nH]n1	-4
99	CN(C)c1nc(-c2ccncc2)nc2c1CCN(C(=O)c1cnccn1)C2	-13
100	Cc1oc(-c2ccccc2Cl)nc1CSc1nc2c(=O)[nH]cnc2n1C	14
101	COCC(=O)N1CCC(N(C)Cc2ccccc2)CC1C(=O)O (stereo not given)	4
102	Cc1cc(C)c(S(=O)(=O)NCCc2sc(-c3cccc(F)c3)nc2C)c(C)c1	48
103	CCOC(=O)c1cc(-c2ccnn2C(=O)c2ccccc2)on1	32
104	O=C(NC1CC1)c1ccc2ncnc(N3CCCCC3)c2c1	-47
105	FC(F)(F)c1ccc(CSc2ncc(-c3ccc(Cl)cc3)o2)cc1	-38
106	Cc1ccc2c(=O)cc(C(=O)NCc3cccnc3-n3ccnc3)oc2c1	0
107	C=CC(=O)N1C[C@H]2CCCC(N3CCN(c4ncccn4)CC3)[C@@H]2C1 (stereo not given in full)	15
108	CS(=O)(=O)N1[C@@H]2CNC[C@H]1C2c1ccc(-c2ccccc2)cc1 (stereo not given in full)	-19&10
109	Cc1ccc(-n2cc(CNCCN3CCOC3=O)c(-c3ccc(F)cc3)n2)cc1	17
110	Cn1cc(CN2CCc3ncnc(-c4cccc(F)c4)c3CC2)cn1	-6
111	O=C(CC(F)(F)F)N1C[C@@H]2[C@H](c3ccccc31)[C@@H](CO)N2Cc1cccnc1	7
112	CN(Cc1cc(-c2ccccc2)no1)Cc1cnn(C)c1C1CC1	20
113	COc1cccc(CNC(=O)N2CCN3CCNC(=O)C3C2)c1 (stereo not given)	-3
114	CC[C@H](C)Nc1c(C(=O)OC)c(=O)[nH]c2c(Cl)cccc12	-2
115	CC(C)CN1CC2(CCN(S(=O)(=O)C3CC3)CC2)COc2ccccc2S1(=O)=O	-10
116	CN1c2ccc(-c3cccc(C#N)c3)cc2[C@@H]2[C@@H](CCN2C(=O)CN2CCOCC2)[C@@H]1CO	-5
117	O=C(NCCc1ccncc1)[C@H]1[C@H](CO)[C@H]2Cn3c(cccc3=O)[C@@H]1N2Cc1ccccc1F	-5
118	NC(=O)c1ccc(NC(=O)c2cccc3c2OCCCO3)cc1	54

Quoted from the listing:
compound 113 – Tgondii IFNg: -3
compound 117 – Tgondii IFNg: -5
compound 104 – Tgondii IFNg: -47
compound 106 – Tgondii IFNg: 0
compound 108 – Tgondii IFNg: -19&10

A portion of the library; count on the stated rates, not on these rows.
